# BJeLR lethal: kills HRASV12-expressing BJeLR cells. AID 1554. inhibition, % (no concentration beside the values). BJeLR (HRASV12) viability, CellTiter-Glo ATP luminescence, 48 h; reference of the scale not given here. hit rate 0.17% among 300,000;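 active = replicate mean above 50%; inconclusive = above 50% but judged a plate artefact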;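 also: 50 nL library stock added to about 25 µL; numbers are from one replicate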
# Mtb hypoxia inh: Mtb hypoxia fluorescent reporter inhibition | M. tuberculosis hypoxia-regulated fluorescent reporter, fluorescence | fluorescence inhibition, % (concentration not given with the values) | hit rate 0.1% among 300,000;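 active = 35 to 45% if threefold the growth effect, above 45% if 1.5-fold the growth effect; inactive = the rest, general growth blockers included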;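 also: wells of about 50 µL received 100 nL stock; 0% = vehicle wells and 100% = reference inhibitor wells; whole bacteria with a GFP reporter of the hypoxia response; strong numbers were not always called active; many hits fall short of the cut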
# Sa RN4220 lethal: kills Staphylococcus aureus RN4220 | S. aureus RN4220 growth, OD600, 16 h | inhibition, % (concentration not given with the values) | hit rate 0.33% among 330,000;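 active = z-score of -3 or lower and OD600 up to 0.18 on both plates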;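 also: plate controls were untreated cells for no effect and reference antibiotic for full effect; stock transfer was 100 nL into about 80 µL; one replicate is shown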
# Autofluor counter: flagged as autofluorescent in microsphere protease counterscreen. compound autofluorescence counterscreen, microsphere flow cytometry; hits give high values. fluorescence intensity (concentration not given with the values). hit rate 3.1% among 360,000. AID 624483;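 active = at least 3 SD above the mean of all compounds, about 16000 in these data; inconclusive = too few beads counted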;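 also: 100 nL of 1 mM stock went into each well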
# PrP UTR inh: suppresses PrP 5' UTR mRNA reporter expression; cell-based PrP 5' UTR mRNA reporter, plate reader; inhibition, % (no concentration beside the values); hit rate 0.35% among 340,000; AID 488862;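 active = every replicate at 50% or more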;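 also: 0 = median of the neutral control wells; tested in H4 reporter cells; numbers are from one replicate; inactives centre near -14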
# ugtP null kill: growth inhibition of S. aureus ugtP deletion strain. S. aureus RN4220 ugtP deletion, OD600 growth, 16 h; some inactives read as strong as hits. growth inhibition, % (test concentration not listed). hit rate 0.54% among 330,000;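 active = z-score under -3 and OD600 up to 0.15 on both plates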;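 also: plate controls were untreated wells for no effect and antibiotic for full effect; wells of about 80 µL received 100 nL stock; the first replicate is given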
# Mtb hypoxia inh growth: recorded beside Mtb hypoxia inh, whose call it bears; growth inhibition, %; measured here: M. tuberculosis growth (absorbance);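 0% = vehicle and 100% = reference antibiotic; read after six days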
# * marks the source's active call; other numbers are inactive results; ? = inconclusive; . = no result given.
SMILES,BJeLR lethal,Mtb hypoxia inh,Mtb hypoxia inh growth,Sa RN4220 lethal,Autofluor counter,PrP UTR inh,ugtP null kill
COc1ccc(-c2noc(CN3CCC(Cc4ccccc4)CC3)n2)cc1,-5,3,2,3.7,11925,-42,61
CCc1nnc(NC(=O)CSc2nc(N)c(NC(=O)c3ccc(OC)cc3)c(=O)[nH]2)s1,4,2,1,5.1,5270,-25,-3
O=C(CN1CCOCC1)N1N=C(c2cccs2)CC1c1cccs1 (stereo not given),-3,-2,5,2.3,3918,-20,10
CN(Cc1ccccc1Cl)C(=O)c1cnccc1C(F)(F)F,-5,-3,-10,1.5,6253,-8,8
C=C1C(O)C2O[C@]3(CCC(C=CC(C)C4CC(C)=CC5(OC(C[C@@](C)(O)CO)CCC5O)O4)O3)CCC2OC1C(O)CC(C)C1OC2(CCCCO2)CCC1C (stereo not given in full),.,-7,4,1.5,.,.,-11
COc1cccc(CN2CCC(n3nccc3NC(=O)CCCc3ccccc3)CC2)c1O,5,3,3,4.4,6236,-10,0
O=C(COC(=O)c1nc(Cl)ccc1Cl)NC(=O)c1ccccc1,6,.,.,.,6540,-11,.
CCn1nnc(NC(=O)c2ccc(Br)o2)n1,3,3,5,2.6,5630,-3,13
CCO[C@@H]1OC(C(=O)N2CCN(Cc3ccc4c(c3)OCO4)CC2)=C[C@H](c2coc3ccccc3c2=O)[C@H]1CCCO,-12,.,.,.,3472,-8,.
Cn1c(CCNC(=O)c2ccco2)nc2cc(NC(=O)c3ccccc3)ccc21,1,4,13,-1.6,5422,-81,6
COc1ccc(CCNS(=O)(=O)c2ccc3c(c2)NC(=O)CS3)cc1OC,-7,-4,4,0.8,5676,-8,-1
CCCCOc1ccc(C(=O)NCC(=O)N2CCN(Cc3ccc4c(c3)OCO4)CC2)cc1,6,5,1,1.8,5980,-17,6
COc1cc(C(=S)N2CCOCC2)cc(OC)c1OC(=O)Cc1ccc(F)cc1,6,15,1,5.3,9489,-14,17
CC(NC(=O)COC(=O)c1ccc([N+](=O)[O-])o1)c1ccccc1 (stereo not given),.,18,8,2.2,2873,-6,12
CCCCC(=NO)c1c[nH]c2ccccc12,.,2,8,4.7,.,.,11
CCCc1c(O)nc(SCCN(CC)CC)[nH]c1=O,-12,3,3,5.1,4692,-19,-2
COc1ccc(C)cc1S(=O)(=O)Nc1ccc(F)cc1,-8,.,.,0.4,3508,22,-3
CC(=NNC(=S)NCc1ccccc1)c1ccc(Br)cc1,.,10,8,9.0,.,.,14
O=C(NC1CCN(Cc2ccccc2)C1)c1cc(COc2ccc(F)cc2F)on1 (stereo not given),-4,-9,1,2.8,5354,-8,13
C(=Nn1cnnc1)c1cccs1,.,7,6,4.8,.,.,0
Cc1ccsc1C=NNC(=O)c1c[nH]c2ccccc12,.,1,5,-1.3,.,.,-12
O=C(c1ccc([N+](=O)[O-])cc1)N1CCOC12CCN(c1ncc(C(F)(F)F)cc1Cl)CC2,-1,-1,7,-13,2833,-38,-10
CCCNC(=O)COC(=O)c1ccc(S(=O)(=O)N2CCCC2)cc1,6,4,2,2.4,2650,-26,-1
COc1ccc(NS(=O)(=O)c2cccc(C(=O)NC3CCN(Cc4ccccc4)CC3)c2)cc1,2,-10,-11,-2.5,6154,-9,-5
COc1ccc(Cl)cc1NC(=S)N1CCN(C(=O)c2ccco2)CC1,1,7,7,7.8,2426,1,1
CCC(=O)Nc1ccc(NC(=O)c2cc3ccccc3o2)c(OC)c1,-9,.,.,.,3119,-72,.
COC(=O)CSc1nc(NCc2ccccc2)nc(N(C)C)n1,-13,-2,10,5.4,3471,-16,4
Cc1ccc(C=NNC(=O)c2cccc(NC(=O)c3ccccc3C)c2)o1,.,9,-7,-1.8,.,.,6
COC(=O)/C=C/c1ccc2c(c1)S(=O)(=O)N(Cc1ccc(OC)cc1)[C@H]2CC(=O)OC,6,.,.,.,2902,-24,.
CCOc1cc(C=N/N=C2/NC(=O)C(CC(=O)O)S2)ccc1OCc1ccccc1Cl (stereo not given),.,-2,5,-7.8,.,.,-15
O=C(O)CC(NC(=O)/C(=C/c1ccccc1)NC(=O)c1ccccc1)c1ccccc1 (stereo not given),-14,-4,-7,1.4,4168,4,4
O=C(O)c1cc(C(=O)C2CC2)c[nH]1,.,-7,-2,-0.7,4814,-16,4
CC(C)C(c1nnnn1C1CCCCC1)N1CCc2ccccc2C1 (stereo not given),5,13,6,7.4,9433,-29,-4
CC(=O)c1cccc(S(=O)(=O)NC2CCSc3ccccc32)c1 (stereo not given),-1,11,6,1.5,3034,-2,-1
Cc1cccc(N(CC(=O)NCCc2ccccc2)C(=O)CCC(=O)Nc2ccccn2)c1C,-12,-4,-4,-0.4,4013,-1,-3
COC(=O)C1CCN(Cc2cn(Cc3ccccc3)nc2-c2cc3ccccc3o2)CC1,-6,2,-7,1.0,6178,-15,2
COc1cccc(C(c2sc3ncnn3c2O)N2CCN(C(=O)c3ccco3)CC2)c1 (stereo not given),-1,8,8,-3.2,4450,-8,7
COc1ccc(C(C)=NNC(=O)CNC(=O)/C=C/c2ccccc2OC)cc1,.,11,-3,0.6,.,.,5
CC(C)CCSc1nc2[nH]ncc2c(=O)[nH]1,4,-8,11,1.8,2939,-6,12
COC(=O)/C(=C/c1ccc(OC)cc1)NC(=O)c1ccco1,-1,5,4,2.0,2033,-1,1
CN(C)c1c([N+](=O)[O-])cc(N2C(=O)C=CC2=O)cc1[N+](=O)[O-],.,6,1,4.4,3818,-17,1
O=C(Nc1cc(Sc2nc3ccccc3s2)cc([N+](=O)[O-])c1)c1ccccc1F,8,.,.,-7.1,4648,-6,-6
CC(=O)c1ccc(OCc2cc(C(=O)N3CCOCC3)no2)cc1,-1,-7,8,-1.2,5272,-41,1
CN(N=Cc1cccnc1)c1cnn(-c2ccc(F)c(Cl)c2)c(=O)c1Cl,.,10,6,7.2,.,.,-6
COc1ccc(NS(=O)(=O)c2cc(-c3cnc(C4CC4)o3)ccc2C)cc1,32,-2,3,1.3,5768,-11,-7
O=C(COC(=O)/C=C/c1ccc(S(=O)(=O)N2CCOCC2)cc1)Nc1ccccc1F,.,15,14,2.3,3412,-15,7
Cc1ccc(-c2csc3nc(C)n(N)c(=O)c23)o1,7,3,-1,2.6,22183*,-60,4
CCC(=NCCN1CCCCC1)c1c(O)n(C)c(=O)n(C)c1=O,-1,-3,4,3.0,2999,-1,-3
COc1ccc(C(=O)Nn2c(CCC(=O)O)ccc2-c2ccc(C)cc2)cc1OC,1,-2,-1,5.2,?,-5,1
Cc1cccc(CN2CCC(CNC(=O)CSc3cc(=O)n(C)c4cc(Cl)ccc34)CC2)c1,3,6,2,-0.6,4903,-18,0
O=C(NCCNC(=O)c1cc(OCC(F)(F)F)ccc1OCC(F)(F)F)Nc1cccc(C(F)(F)F)c1,9,4,14,-7.6,24354*,-54,-15
Cc1ccc(OCC(=O)Nc2ccccc2C(=O)N2CCCCC2)cc1,5,2,1,2.3,5801,-23,-1
COc1ccc(NC(=O)COc2ccc(CNCCCN3CCOCC3)cc2OC)cc1,17,3,-3,3.4,8495,1,-2
O=C(CN1C(=O)NC(c2ccccc2)(c2ccccc2)C1=O)Nc1cccnc1Cl,14,-8,7,2.3,4180,-27,6
O=C(CSc1nnc(-c2cccnc2)o1)N1CCCCC1,-13,12,-12,-3.3,4285,-11,0
COC(=O)c1cccc(-n2nnnc2SCC(=O)Nc2nc3c(s2)CCCC3)c1,-5,-2,2,9.7,3198,1,-18
Cc1ccc(S(=O)(=O)N(C)CC(=O)NCc2ccncc2)cc1,-2,0,12,6.5,10268,-48,-7
Cc1cc(C)n(C(=O)c2cc3ccccc3c(=O)o2)n1,-4,5,4,-12,?,-18,-4
CC(NC(=O)Nc1ccccc1)C(c1cccs1)N1CCN(C)CC1 (stereo not given),9,6,8,-9.4,6011,-32,-5
CCC1CCCCN1CCCNC(=O)Cn1cc2c(n1)-c1c(oc(C(=O)N3CCCC3)c1C)CC2 (stereo not given),8,2,-1,4.4,4545,7,0

# A second format for some results above:
CCC1CCCCN1CCCNC(=O)Cn1cc2c(n1)-c1c(oc(C(=O)N3CCCC3)c1C)CC2 (stereo not given)
  BJeLR lethal = 8	Mtb hypoxia inh = 2	Mtb hypoxia inh growth = -1	Sa RN4220 lethal = 4.4	Autofluor counter = 4545	PrP UTR inh = 7	ugtP null kill = 0

Cc1cccc(CN2CCC(CNC(=O)CSc3cc(=O)n(C)c4cc(Cl)ccc34)CC2)c1
  BJeLR lethal = 3	Mtb hypoxia inh = 6	Mtb hypoxia inh growth = 2	Sa RN4220 lethal = -0.6	Autofluor counter = 4903	PrP UTR inh = -18	ugtP null kill = 0

# (cont.)
SMILES,BJeLR lethal,Mtb hypoxia inh,Mtb hypoxia inh growth,Sa RN4220 lethal,Autofluor counter,PrP UTR inh,ugtP null kill
Cn1c(NCc2ccco2)nc2ccccc21,1,11,4,4.1,17845*,-1,2
Cc1cc(C)n(C(=O)CNC(=O)c2cccc(Cl)c2)n1,-7,0,-7,2.1,5253,1,-4
Cc1cc(C)cc(-n2c(O)c(C=Nc3ccc(N4CCOCC4)cc3)c(=O)[nH]c2=S)c1,0,3,-1,3.9,2162,-14,-2
CCCc1sc(C(=O)Nc2nnc(C3CC3)s2)cc1CC,.,5,-3,4.4,6136,-20,2
CCOC(=O)c1c(-c2cccc([N+](=O)[O-])c2)csc1NC(=O)C1CC1,5,11,13,-1.3,8397,.,-11
CCOC(=O)c1cc(C(=O)NC(C)c2ccccc2)c(C)[nH]c1=O (stereo not given),-1,-2,-8,5.3,4313,-16,1
COc1ccc(C(=O)Nc2ncccc2C)cc1S(=O)(=O)N1CCOCC1,-8,-3,9,0.8,.,-18,2
CSCCC(NC(=O)c1ccco1)C(=O)NCC(C)(C)N1CCOCC1 (stereo not given),.,-18,0,-3.1,6078,-11,-3
O=C(CN1CCN(c2ccc(C(F)(F)F)cn2)CC1)NCc1ccc2c(c1)OCO2,-8,16,10,3.9,3704,-15,3
CC(C)c1ccc(NC(=O)C2CCN(S(=O)(=O)c3ccc4c(c3)C(C)(C)C(=O)N4C)CC2)cc1,10,13,5,-0.8,5648,-30,7
CC(C)C(c1nnnn1C1CCCC1)N1CCCc2ccccc21 (stereo not given),3,15,16,21,24060*,4,-2
CN1CCN(/N=C/c2ccc(N(c3ccccc3)c3ccccc3)cc2)CC1,3,.,.,.,4502,-1,.
Cc1ccc(N2CCN(C3=NC(=O)/C(=C\c4cn[nH]c4-c4ccccc4)S3)CC2)cc1,3,8,-1,6.6,2632,14,11
Cc1ccc(C)c(C(=O)COc2ccccc2[N+](=O)[O-])c1,-18,10,14,0.1,1959,-23,1
COc1cc(C=NNC(N)=O)cc(Br)c1OCc1ccccc1C,.,13,9,7.3,.,.,0
COC(=O)c1ccc2nc(Nc3nc4ccc(F)cc4s3)sc2c1,-10,6,-1,10,2583,81*,-3
CCOc1ccc(NC(=O)Nc2ccc3c(c2)nc(C)n3C)cc1,0,15,3,1.6,3358,-3,2
CC(C)(C)c1cc(Br)ccc1OCC(=O)Nc1ncn[nH]1,1,.,.,-17,2226,-10,-7
CC(=O)N1CCC(N(C(=O)Nc2ccc(F)cc2)C2CCCC2)CC1,7,6,-1,3.1,4493,-11,-4
CC(Oc1ccc(F)cc1Br)c1nc2ccccc2c(=O)[nH]1 (stereo not given),-13,5,5,-3.3,3436,-25,-7
COc1ccc(Nc2ncc3c(n2)CC(c2ccc(OC)cc2)CC3=O)cc1 (stereo not given),0,.,.,0.7,2728,-4,5
O=C(Nc1nc(N2C(=O)c3ccccc3C2=O)n(-c2ccccc2)n1)c1ccc(F)cc1,2,9,3,2.3,4232,-19,10
COc1cc(NC(=O)c2ccc(CNc3c(N4CCCC4)c(=O)c3=O)cc2)cc(OC)c1OC,3,4,8,2.7,4982,-1,12
CCn1c(CNC(=O)Cc2ccc(OC)cc2)nnc1SCC(=O)c1ccc(Br)cc1,5,11,3,0.0,8372,1,-2
NC(=O)CCN1CCC(c2nc3ccccc3s2)CC1,-6,-2,4,1.4,6608,-20,7
Cc1ccc(C(=O)NC(C)CCc2ccccc2)cc1[N+](=O)[O-] (stereo not given),-1,1,3,-2.8,3341,8,2

# Bioassay records deposited in PubChem by several laboratories.
